Source: PubChem (Broad Institute)
NOMO-1 viab = NOMO-1 AML cell viability reduction, primary screen, STK33 inhibitor project, CellTiter-Glo luminescence; NOMO-1 AML viability, 72 h; AID 2330, 2010; actives 7.5% (n = 37,000); inhibition, % (concentration not given with the values);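 active = most replicates above 80%; inconclusive = exactly half above 80%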;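 also: wells of about 30 µL received 25 nL stock; 0% = median of vehicle wells and 100% = reference inhibitor level; the first replicate is given; inactives centre near 10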
Active calls of the source: *; ? = inconclusive. The list is partial, so the mix of outcomes need not match the whole.

SMILES | NOMO-1 viab
COC(=O)c1ccc(NC(=O)CN(C)S(=O)(=O)c2ccccc2)cc1 | -1
CC(C)NC(=O)N(C)C[C@H]1Oc2ccc(NC(=O)Cc3ccccc3)cc2C(=O)N([C@H](C)CO)C[C@H]1C | -5
CCCC1=CC(=O)C(O)C1O (stereo unspecified) | 7
COc1ccc(NC(=O)N(C)C[C@H]2Oc3ccc(NS(=O)(=O)c4ccc(OC)cc4)cc3C(=O)N([C@H](C)CO)C[C@@H]2C)cc1 | 47
C[C@@H]1CN([C@H](C)CO)C(=O)c2cccc(NC(=O)Nc3cccc4ccccc34)c2O[C@@H]1CN(C)S(=O)(=O)c1cn(C)cn1 | 5
C[C@@H]1CN([C@H](C)CO)C(=O)c2cc(NC(=O)Cc3cn(C)c4ccccc34)ccc2O[C@H]1CN(C)Cc1ccc(C(=O)O)cc1 | -11
C[C@@H]1CN([C@@H](C)CO)C(=O)c2cccc(NC(=O)Nc3ccc4c(c3)OCO4)c2O[C@@H]1CN(C)Cc1ccc(-c2ccccc2)cc1 | 116*
CCc1ccc(OCC(=O)Nc2cccc3ncccc23)cc1 | -15
Cc1ccc(S(=O)(=O)Nc2ccc3c(c2)CC(=O)N([C@@H](C)CO)C[C@@H](C)[C@@H](CN(C)Cc2ccc(C(=O)Nc4ccccc4N)cc2)O3)cc1 | 109*
C[C@@H]1CN([C@H](C)CO)C(=O)c2cc(NS(=O)(=O)c3ccc(Cl)cc3)ccc2O[C@H]1CN(C)Cc1ccc(C(F)(F)F)cc1 | 123*
C[C@@H]1CN([C@@H](C)CO)C(=O)c2cccc(NC(=O)c3cnccn3)c2O[C@H]1CN(C)Cc1ccc(Cl)c(Cl)c1 | 105*
COc1ccc(C)cc1NC(=O)CSc1nc(C)cc(-c2ccccc2)n1 | 38
COc1ccc(S(=O)(=O)N(C)C[C@@H]2Oc3ccc(NC(=O)Nc4c(C)noc4C)cc3C(=O)N([C@@H](C)CO)C[C@H]2C)cc1 | 6
CC(Oc1ccc(Cl)cc1Cl)C(=O)NC(=S)Nc1cccc(NC(=O)c2cccs2)c1 (stereo unspecified) | 3
COc1ccc(S(=O)(=O)N(C)C[C@@H]2Oc3c(NC(=O)NC(C)C)cccc3C(=O)N([C@@H](C)CO)C[C@@H]2C)cc1 | -11
CCOC(=O)c1cnn(-c2ccccc2)c1NC(=O)C(C)(C)C | 26
CCCc1c(C(=O)O)c(O)cc2c1C(=O)c1c(O)cccc1C2=O | 57
COc1cc(OC)cc(-c2nnc(SCC(=O)Nc3ccc(I)cc3)o2)c1 | 90*
O=C(CSc1ncc(-c2ccccc2)nn1)c1ccc(Br)cc1 | 3
C[C@H]1CN([C@@H](C)CO)C(=O)c2cccc(NC(=O)Nc3ccccc3)c2O[C@H]1CN(C)Cc1ccc(C(=O)O)cc1 | 9
CCOC(=O)c1c(-c2ccc(Cl)cc2)csc1NC(=O)C1CCCCC1C(=O)O (stereo unspecified) | 1
CC(C)NC(=O)N(C)C[C@H]1Oc2ccc(NC(=O)Nc3ccc(C(F)(F)F)cc3)cc2C(=O)N([C@H](C)CO)C[C@H]1C | 17
CCc1c(O)nc(SC2CC(=O)N(c3ccc(F)c(Cl)c3)C2=O)[nH]c1=O (stereo unspecified) | 3
C[C@H]1CN([C@@H](C)CO)C(=O)Cc2cc(NC(=O)Nc3ccc(C(F)(F)F)cc3)ccc2O[C@@H]1CN(C)Cc1ccc(C(F)(F)F)cc1 | 126*
Cc1noc(C)c1NC(=O)Nc1cccc2c1O[C@@H](CN(C)Cc1ccc(-c3ccccc3)cc1)[C@H](C)CN([C@H](C)CO)C2=O | 58
Remaining list, next part:
SMILES | NOMO-1 viab
CN(CC(=O)Nc1ccccc1C#N)S(=O)(=O)c1ccc2ccccc2c1 | 13
COC(=O)c1ccccc1C(=O)c1ccccc1 | 12
Cc1c(C(=O)C2C(=O)C(=O)N(Cc3cccnc3)C2c2cccs2)cnn1-c1ccccc1 (stereo unspecified) | -19
O=C1OC(c2ccc(-c3ccccc3)cc2)=N/C1=C\c1ccco1 | 1
C[C@H](CO)N1C[C@H](C)[C@H](CN(C)C)Oc2ccc(NC(=O)Nc3ccc4c(c3)OCO4)cc2CC1=O | -2
CC(=O)Nc1ccc(S(=O)(=O)CCO)cc1 | 25
CC(C)NC(=O)Nc1ccc2c(c1)C(=O)N([C@H](C)CO)C[C@@H](C)[C@@H](CN(C)Cc1ccc(-c3ccccc3)cc1)O2 | 24
NCCNc1ccc([N+](=O)[O-])c(Sc2nc3ccccc3[nH]2)c1 | 15
CCn1c(SCC(=O)Nc2cccc(OC)c2)nnc1-c1ccc(Br)cc1 | 2
C[C@H](CO)N1C[C@H](C)[C@@H](CN(C)Cc2ccc(Cl)c(Cl)c2)Oc2c(NC(=O)c3ccc(-c4nccs4)cc3)cccc2C1=O | 116*
C[C@H]1CN([C@@H](C)CO)C(=O)c2cccc(NS(=O)(=O)c3ccccc3)c2O[C@@H]1CN(C)Cc1ccc(C(F)(F)F)cc1 | 13
Cc1noc(C)c1NC(=O)Nc1ccc2c(c1)C(=O)N([C@H](C)CO)C[C@H](C)[C@@H](CN(C)S(=O)(=O)c1ccc(Cl)cc1)OCCCC[C@@H](C)O2 | 7
C[C@@H]1CN([C@H](C)CO)C(=O)c2cccc(NS(=O)(=O)c3ccccc3)c2O[C@@H]1CN(C)Cc1ccccc1 | 7
O=C(Nc1ccccc1)c1ccc(NCC2CCCO2)c(S(=O)(=O)N2CCOCC2)c1 (stereo unspecified) | 21
CNC[C@H]1OCCCC[C@@H](C)Oc2ccc(NC(=O)Nc3ccc(F)cc3)cc2C(=O)N([C@H](C)CO)C[C@@H]1C | 8
Cc1noc(C)c1S(=O)(=O)N(C)C[C@@H]1OCCCC[C@@H](C)Oc2ccc(NC(=O)Cc3ccccc3)cc2C(=O)N([C@H](C)CO)C[C@@H]1C | 3
c1csc(-c2cc(N3CCCCC3)c3ccccc3n2)c1 | -1
C[C@H](CO)N1C[C@H](C)[C@@H](CN(C)C(=O)Nc2ccccc2)Oc2c(NC(=O)c3nc4ccccc4s3)cccc2C1=O | 14
C[C@H](CO)N1C[C@H](C)[C@@H](CN(C)Cc2ccc(C(=O)O)cc2)Oc2c(NS(=O)(=O)c3cn(C)cn3)cccc2C1=O | -5
C[C@@H]1CCCCO[C@@H](CN(C)C(=O)Nc2ccc(C(F)(F)F)cc2)[C@@H](C)CN([C@H](C)CO)C(=O)c2cc(NC(=O)Nc3ccc(C(F)(F)F)cc3)ccc2O1 | 77
C[C@H]1CN([C@@H](C)CO)C(=O)Cc2cc(NS(C)(=O)=O)ccc2O[C@H]1CN(C)Cc1ccc(-c2ccccc2)cc1 | ?
Cc1onc(-c2ccccc2Cl)c1C(=O)NCc1ccc(N2CCCC2=O)cc1 | 2
COc1ccc(NC(=O)Nc2ccc3c(c2)CC(=O)N([C@@H](C)CO)C[C@H](C)[C@H](CN(C)Cc2ccccc2)O3)cc1 | 21
CCCc1c(C(=O)OCC)c(C(=O)OCC)c2c(-c3ccccc3)nc(N3CCOCC3)nn12 | ?
O=C(O)c1cccc(CSc2nnc(-c3ccc(Cl)cc3)o2)c1 | 8

Filtered by structure, those above containing an aryl methoxy group (seven)
SMILES | NOMO-1 viab
COc1ccc(NC(=O)N(C)C[C@H]2Oc3ccc(NS(=O)(=O)c4ccc(OC)cc4)cc3C(=O)N([C@H](C)CO)C[C@@H]2C)cc1 | 47
COc1ccc(C)cc1NC(=O)CSc1nc(C)cc(-c2ccccc2)n1 | 38
COc1ccc(S(=O)(=O)N(C)C[C@@H]2Oc3ccc(NC(=O)Nc4c(C)noc4C)cc3C(=O)N([C@@H](C)CO)C[C@H]2C)cc1 | 6
COc1ccc(S(=O)(=O)N(C)C[C@@H]2Oc3c(NC(=O)NC(C)C)cccc3C(=O)N([C@@H](C)CO)C[C@@H]2C)cc1 | -11
COc1cc(OC)cc(-c2nnc(SCC(=O)Nc3ccc(I)cc3)o2)c1 | 90*
CCn1c(SCC(=O)Nc2cccc(OC)c2)nnc1-c1ccc(Br)cc1 | 2
COc1ccc(NC(=O)Nc2ccc3c(c2)CC(=O)N([C@@H](C)CO)C[C@H](C)[C@H](CN(C)Cc2ccccc2)O3)cc1 | 21

The results go on:
SMILES | NOMO-1 viab
COc1c2ccoc2nc2c(OC)c(OC[C@@H](O)C(C)(C)O)ccc12 | -5
CSC(=Nc1c(C)cccc1C)N(C)C | -7
CC(C)CN1CC(C(=O)O)CC1=O (stereo unspecified) | -3
Cc1ccccc1-c1nnc(SCC(=O)Nc2ccc(Br)cc2F)n1C | -7
Cc1c(OC(=O)c2ccco2)ccc2c3c(c(=O)oc12)CCC3 | 29
C[C@@H]1CN([C@H](C)CO)C(=O)c2cc(NC(=O)CCC(F)(F)F)ccc2O[C@@H]1CN(C)Cc1ccc(C(F)(F)F)cc1 | 21
Cc1ccnc(NS(=O)(=O)c2ccc(NC(=O)c3cncc(Br)c3)cc2)n1 | -1
C[C@@H]1CCCCO[C@H](CN(C)S(=O)(=O)c2ccc(Cl)cc2)[C@@H](C)CN([C@H](C)CO)C(=O)c2cc(NS(=O)(=O)c3cccs3)ccc2O1 | 10
COc1ccc(S(=O)(=O)N(C)C[C@H]2Oc3c(NS(=O)(=O)c4cccs4)cccc3C(=O)N([C@@H](C)CO)C[C@H]2C)cc1 | 6
C[C@@H]1CN([C@@H](C)CO)C(=O)c2cccc(NC(=O)c3nc4ccccc4s3)c2O[C@H]1CN(C)S(=O)(=O)c1ccccc1 | 15
CNC[C@H]1Oc2ccc(NC(=O)CCN3CCOCC3)cc2C(=O)N([C@H](C)CO)C[C@H]1C | 8
Cc1ccc(S(=O)(=O)N(C)C[C@@H]2Oc3ccc(NC(=O)c4ccncc4)cc3CC(=O)N([C@H](C)CO)C[C@H]2C)cc1 | -6
CCN(CC(=O)Nc1ccc2c(c1)OCCO2)S(=O)(=O)c1ccc(C)cc1 | 7
Cc1ccc2nc(NCCCO)[nH]c2c1 | 26
Cc1cc(C(=O)Nc2cccc3c2O[C@H](CN(C)Cc2ccc(C(F)(F)F)cc2)[C@H](C)CN([C@@H](C)CO)C3=O)n(C)n1 | 30
O=c1c(Cc2ccc(Br)cc2)csc2ccccc12 | 12
CCc1cc2c(=O)n(CC(=O)Nc3cc(OC)ccc3OC)cnc2s1 | -9
COc1ccc2nc(SCC(=O)NC3CCCCCC3)[nH]c2c1 | 22
Cc1ccc(S(=O)(=O)N(C)C[C@H]2Oc3ccc(NS(=O)(=O)c4cn(C)cn4)cc3CC(=O)N([C@@H](C)CO)C[C@H]2C)cc1 | -1
CS(=O)(=O)N(CC(=O)NC1CCCCCC1)c1ccc(F)cc1 | 4
C[C@H]1CN([C@@H](C)CO)C(=O)c2cccc(NS(=O)(=O)c3cccs3)c2O[C@@H]1CN(C)CC1CCCCC1 | 7
Cc1ccccc1OCC(=O)Nc1cccc(-c2nnc(-c3ccco3)o2)c1 | 67
Cc1ccccc1OCC(=O)Nc1cccc(-c2nc3ccccc3s2)c1 | -17
Cc1noc(C)c1S(=O)(=O)Nc1ccc2c(c1)C(=O)N([C@@H](C)CO)C[C@@H](C)[C@H](CN(C)S(=O)(=O)c1ccc(Cl)cc1)O2 | 6
COC(=O)c1ccccc1NC(=O)C(C)N(c1ccc(Cl)cc1)S(C)(=O)=O (stereo unspecified) | 31
Next results follow:
SMILES | NOMO-1 viab
O=C(CSc1nnc(-c2ccccc2)c(-c2ccccc2)n1)C1CC1 | 0
C[C@@H]1CN([C@H](C)CO)C(=O)c2cccc(NC(=O)c3cnccn3)c2O[C@H]1CN(C)Cc1ccc(C(=O)Nc2ccccc2N)cc1 | ?
O=S(=O)(/C=C/c1ccccc1)Nc1ccccc1 | 47
C[C@H](CO)N1C[C@H](C)[C@H](CN(C)C(=O)Nc2ccccc2)Oc2c(NS(=O)(=O)c3cccs3)cccc2C1=O | 6
C[C@H]1CN([C@@H](C)CO)C(=O)c2cccc(NC(=O)C3CCOCC3)c2O[C@H]1CN(C)Cc1ccc(C(=O)O)cc1 | -6
Cc1ccc(S(=O)(=O)Nc2ccc3c(c2)CC(=O)N([C@H](C)CO)C[C@@H](C)[C@H](CN(C)S(=O)(=O)c2cn(C)cn2)O3)cc1 | 13
COc1ccc(NC(=O)Nc2ccc3c(c2)C(=O)N([C@H](C)CO)C[C@@H](C)[C@H](CN(C)C)O3)cc1 | -4
COc1ccc(CNc2nc3nc(-c4ccccc4)cc(=O)n3[nH]2)cc1OC | 36
COc1cccc(OCC(=O)Nc2cccc(-c3nnc(-c4ccccc4)o3)c2)c1 | 56
Cc1ccc(S(=O)(=O)Nc2ccc3c(c2)CC(=O)N([C@@H](C)CO)C[C@@H](C)[C@@H](CN(C)C(=O)Nc2cccc4ccccc24)O3)cc1 | 15
Cc1c(NC(=O)COc2ccc(Br)cc2)cccc1-c1nc2cc(Cl)ccc2o1 | 38
Cc1cc(=O)[nH]c(SCC(=O)c2ccc(F)cc2)n1 | 17
COC(=O)CSc1nc(C)cc(C)n1 | 15
C[C@H](CO)N1C[C@H](C)[C@H](CN(C)Cc2ccncc2)Oc2c(NC(=O)Nc3ccc4c(c3)OCO4)cccc2C1=O | 52
CN(Cc1nc(-c2ccccc2)no1)S(=O)(=O)c1ccc(Br)cc1 | -3
CC(C)NC(=O)N(C)C[C@H]1Oc2ccc(NC(=O)Nc3ccc(C(F)(F)F)cc3)cc2C(=O)N([C@@H](C)CO)C[C@H]1C | 17
Cc1ccc(NC(=O)C2Cc3ccccc3CN2S(=O)(=O)c2ccc(C)cc2)cc1 (stereo unspecified) | 36
CNC[C@@H]1Oc2ccc(NC(=O)c3ccncc3)cc2C(=O)N([C@H](C)CO)C[C@@H]1C | 13
Cc1noc(C)c1S(=O)(=O)N(C)C[C@H]1OCCCC[C@@H](C)Oc2ccc(NC(=O)NC3CCCCC3)cc2C(=O)N([C@H](C)CO)C[C@@H]1C | -15
Cc1ccc(S(=O)(=O)N(C)C[C@H]2Oc3c(NC(=O)Nc4ccc(F)cc4)cccc3C(=O)N([C@H](C)CO)C[C@H]2C)cc1 | 45
COc1c(C)cccc1C(=O)N1CCN(c2ccc([N+](=O)[O-])c(NCc3ccco3)c2)CC1 | 18
C[C@H](CO)N1C[C@H](C)[C@H](CN(C)C(=O)Nc2cccc3ccccc23)Oc2ccc(NS(=O)(=O)c3ccc(Cl)cc3)cc2CC1=O | 17
CNC[C@@H]1Oc2ccc(NC(=O)C3CC3)cc2C(=O)N([C@H](C)CO)C[C@@H]1C | 12
